# Assay outcomes (PubChem BioAssay)
# Yeast UUG start = modulators of start codon recognition fidelity in yeast. S. cerevisiae UUG-firefly luciferase reporter, luminescence/redox ratio. activity score, % at 18.7 µM. 0.13% of 350,000 active;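 active means replicate mean at a twofold rise or more, about +100% in these data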;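 further: firefly luciferase made from a UUG start codon reports start codon fidelity; reporter light over untreated wells divided by growth signal over untreated wells; some hits fall short of that in this replicate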
# Rce1 inhib = inhibitors of yeast Ras-converting enzyme; yeast membranes, quenched prenylated peptide cleavage fluorescence; 0.27% of 290,000 active; Q03530; AID 2563; calls only;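 active means fall in fluorescence gain of 50% or more versus controls, with final raw signal at or below 3038400; inconclusive means same 50% fall but final raw signal above 3038400; inactive means fall in fluorescence gain under 50%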;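 further: plate controls were neutral control wells for no effect and wells lacking membranes for full effect; tested at 10 µM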
# Target sequence (Q03530 whole entry, looked up): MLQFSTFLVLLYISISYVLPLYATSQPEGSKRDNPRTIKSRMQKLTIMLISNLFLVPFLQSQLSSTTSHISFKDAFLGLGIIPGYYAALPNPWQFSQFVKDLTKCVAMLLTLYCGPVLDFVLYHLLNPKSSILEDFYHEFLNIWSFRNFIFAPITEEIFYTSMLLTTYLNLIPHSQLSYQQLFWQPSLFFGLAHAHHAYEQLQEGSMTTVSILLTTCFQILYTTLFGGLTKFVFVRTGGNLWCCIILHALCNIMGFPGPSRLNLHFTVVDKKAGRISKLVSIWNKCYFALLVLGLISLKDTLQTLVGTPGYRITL
# eIF4H inh = inhibitors of RNA binding by human eIF4H | eIF4H fluorescence polarization binding assay | 0.94% of 290,000 active | AID 2012 | inhibition, % at 35 µM;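 active means 50% or more with normal probe brightness, or confirmed in later tests; inconclusive means above 50% with abnormal brightness, or retests that disagree; inactive means below 50% or failed in later tests; about a fifth of its hits are not listed in these tables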;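 further: calls also rest on retests at 20 µM and on dose response follow-up; 0% = protein and probe with vehicle and 100% = probe without protein; strong numbers were not always called active; many hits fall short of the cut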
# HIV Env fusion = blocks HIV Env-driven cell-cell fusion | HeLa-JRFL Env/CEM21 cell fusion, luciferase | inhibition, % at 12.3 µM | 1.1% of 360,000 active | AID 651610;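 active means mean replicate inhibition score of at least 50 and every replicate individually at or above 50; inconclusive means only one of the two criteria met; inactive means mean below 50 and not all replicates reaching 50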;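 further: 0% = plate neutral controls and 100% = maraviroc near 300 nM; one replicate is shown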
# CSC inhib = cancer stem cell inhibition; cancer stem cell-like cells viability, luminescence; inhibition, % at 7.5 µM; 1.1% of 300,000 active; AID 2717;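 active means mean at 75% or more and at least half the replicates too; inconclusive means mean and replicates disagree; tested in HMLE shEcad cells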;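 further: 0% = median of negative and 100% = median of positive control wells; the first replicate is given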
# MT1-MMP act inh = MT1-MMP (human) activation inhibition; AID 651647; GFP/RFP ratio change, % at 20 µM; 0.061% of 360,000 active; P50281; HT1080 RFP-PRO-GFP cells, GFP/RFP ratio fluorescence, overnight; percent of plate control window, DMSO zero;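 active means GFP/RFP ratio change of at least 30% with cell ATP level not reduced by more than half and red fluorescence within 50% of control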; further: strong numbers were not always called active
#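 system = RFP-PRO-GFP reporter HT1080 cells | dosing = 20 µM single dose, 1% DMSO | timing = overnight cell settling, then overnight compound exposure, 37 °C, 5% CO2 | read-out basis = GFP/RFP fluorescence ratio | controls = DMSO and RFP-L50D-GFP cell wells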
# PABP FP inh = blocks human PABP binding to poly(A) RNA | inhibition, % at 35 µM | 1% of 290,000 active | fluorescence polarization | P11940;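 active means 50% or more with normal probe brightness, or confirmed in later tests; inconclusive means above 50% with abnormal brightness, or retests that disagree; inactive means below 50% or failed in later tests; about a fifth of its hits are not listed in these tables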;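 further: calls also rest on retests at 20 µM and on dose response follow-up; controls were probe without protein and protein plus probe with vehicle; some compounds called inactive have numbers as strong as hits; many hits fall short of the cut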
# eIF4H inh retest = also measured in eIF4H inh; calls as there; inhibition, %; compound at 20 µM; confirmation average;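 mean of two retest wells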
# PABP FP inh retest = recorded beside PABP FP inh, whose call it bears; inhibition, %; compound at 20 µM; confirmation repeats;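 mean of two retest wells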
# MT1-MMP act inh RFP = recorded beside MT1-MMP act inh, whose call it bears; RFP signal change, %; measured here: RFP expression control read;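 0 = vehicle wells; hits needed this value within 50% of zero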
# Numbers without * were called inactive; i = inactive; u = inconclusive; x = no result given; & = joins results of further samples. An excerpt; rates above refer to the full screens.
SMILES,Yeast UUG start,Rce1 inhib,eIF4H inh,HIV Env fusion,CSC inhib,MT1-MMP act inh,MT1-MMP act inh RFP,PABP FP inh,others
COc1ccc(S(=O)(=O)NCC2CCC(C(=O)NCc3cccnc3)CC2)cc1 (stereo not given),x,i,-1,4,24,2,1,43,
CC1CCCC(C)N1C(=O)CN1C(=O)C(C)(C)Oc2ccc(C(=O)NC3CCCCC3)cc21 (stereo not given),x,i,-11,-19,-10,2,4,4,
Cc1ccc(-c2nc3ccccc3s2)cc1NC(=O)c1ccc2c(c1)OCO2,-22,i,8,-15,15,1,2,1,
Nc1nc(SCC(=O)NCCCN2CCOCC2)nc2sc3c(c12)CCC3,-13,i,-3,x,14,2,1,0,
O=C(COc1ccccc1C(=O)O)NC1CCCc2ccccc21 (stereo not given),x,i,0,12,-3,0,1,69,eIF4H inh retest=-8;PABP FP inh retest=0
CC(C)CCNC(=O)c1cn(C)c2ccc(S(=O)(=O)N3CCCC3)cc2c1=O,3,i,-17,3,-9,5,5,0,
Cc1ccc(-c2cc3c(n2-c2ccc(C(=O)O)cc2)CCCC3=O)cc1,5,i,-7,14,4,3,8,-12,
CCCN1C2CCCC1CC(NC(=S)Nc1cc(C)cc(C)c1)C2 (stereo not given),x,i,11,5,-7,2,6,-2,
CC(C)Oc1cccc(C(=O)C2CCCN(C(=O)c3csnn3)C2)c1 (stereo not given),x,i,-8,12,-7,0,4,-2,
COc1ccc(CCN(C)CCC(=O)Nc2cc(C)ccc2C)cc1OC,-1,i,-2,x,12,1,0,1,
COc1ccc(-c2csc(/N=C/N(C)C)n2)cc1OC,x,i,0,14,1,2,3,3,
O=C(NCCN1CCCC1)C1CCC(=O)N(CCCN2CCOCC2)C1 (stereo not given),7,i,68,u,3,1,6,26,eIF4H inh retest=-1;PABP FP inh retest=31
CN(CC(=O)NCc1ccccc1)S(=O)(=O)c1ccc2c(c1)CCC(=O)N2,-8,i,-8,-10,2,3,2,5,
CNC(=O)CSc1nnc(SCCC(=O)O)s1,-5,i,4,14,-4,0,8,1,
Cc1cccn2c(=O)c(C=C(C#N)C#N)c(N3CCN(C)CC3)nc12,-24,i,8,-84,-15,-6,0,2,
O=C(Nc1ccc(Cl)c([N+](=O)[O-])c1)c1ccc2c(c1)OCCO2,-10,i,11,-43,27,-3,-15,2,
O=S(=O)(N/N=C/c1cn(Cc2ccccc2)c2ccccc12)c1ccccc1,-16,i,1,-85,55,1,-2,5,
CCCc1c(O)nc(SC2CC(=O)N(c3ccc(OC)cc3)C2=O)[nH]c1=O (stereo not given),x,i,0,-177,10,3,2,-10,
Cc1ccc(OC/C(O)=C(\C#N)c2nc3ccccc3s2)cc1,x,i,7,4,78*,1,-1,0,
Cc1cc(C)c(C(=O)Nc2ccc(C)c(C)c2)c(CC(C)(C)C(=O)O)c1,x,i,1,6,0,2,2,-3,
Cc1ccccc1N(C(=O)c1snc(C(N)=O)c1N)C(C)C(=O)NC1CCCCC1 (stereo not given),-9,i,-2,6,-8,4,3,11,
CCOC(=O)c1sc(NC(=O)c2cccc(S(=O)(=O)N(CC)CC)c2)cc1C,-20,i,-14,-49,4,5,-2,3,
CC(Sc1n[nH]c(N)n1)C(=O)C12CC3CC(CC(C3)C1)C2 (stereo not given),x,i,0,x,0,-6,-3,-6,
COc1ccccc1C1CCN(Cc2ccccc2)CC1,-9,i,-1,-13,x,3,6,9,
COc1cc(OC)c(C2Nc3cccc4cccc(c34)N2)c(OC)c1,-17,i,70*,10,0,-10,-11,57*,
Cc1cc(Nc2cccc(F)c2)nc(N2CCOCC2)n1,-4,i,-3,7,-11,1,-5,7,
CCOC(=O)C1(Cc2cccc(OC)c2)CCCN(C(=O)c2cc(C)[nH]n2)C1 (stereo not given),x,i,-7,-2,-4,1,8,6,
Cc1cc(OCC(=O)NNC(=O)c2ccncc2)ccc1C(C)C,-13,i,x,x,-13,4,1,x,
COc1ccccc1C(=O)NCCC(=O)N(C)CC(=O)Nc1ccc(N2CCOCC2)cc1,7,i,x,-7,-4,-6,4,x,
COc1ccc(C(=O)Nc2ccnn2C2CCN(C(=O)c3cnsn3)CC2)cc1,-21,i,-1,-12,3,1,2,2,
Cc1ccc2[nH]c(O)c(N=NC(=O)C3CC3c3ccccc3)c2c1Br (stereo not given),x,i,0,17,-3,2,4,84,eIF4H inh retest=-4;PABP FP inh retest=5
CCC(CC)C(=O)c1c[nH]c(C(=O)N2CCN(c3ccccc3)CC2)c1,x,i,-2,-10,2,1,1,0,
Cc1ccc(C2C(C#N)=C(N)N(c3ncn[nH]3)C3=C2C(=O)CC(C)(C)C3)cc1 (stereo not given),-9,i,-5,x,2,-2,-2,3,
Cc1cccc(OCC(=O)NCCCNC(=O)c2ccccn2)c1,-24,i,-28,1,-1,-2,3,-5,
COc1ccc(NC(=O)CN(C)C(=O)CCNC(=O)c2ccccc2OC)cc1,-9,i,x,-8,-3,2,-1,x,
C=C1CCN([C@@H](CC(C)C)C(=O)N2CCCC2)S(=O)(=O)c2ccccc21,-13,i,x,24,-5,-3,-2,x,

# Part of the list above in order of formula weight, rising.
SMILES,Yeast UUG start,Rce1 inhib,eIF4H inh,HIV Env fusion,CSC inhib,MT1-MMP act inh,MT1-MMP act inh RFP,PABP FP inh,others
COc1ccccc1C1CCN(Cc2ccccc2)CC1,-9,i,-1,-13,x,3,6,9,
Cc1cc(Nc2cccc(F)c2)nc(N2CCOCC2)n1,-4,i,-3,7,-11,1,-5,7,
CC(Sc1n[nH]c(N)n1)C(=O)C12CC3CC(CC(C3)C1)C2 (stereo not given),x,i,0,x,0,-6,-3,-6,
Cc1ccc(OC/C(O)=C(\C#N)c2nc3ccccc3s2)cc1,x,i,7,4,78*,1,-1,0,
Cc1cc(OCC(=O)NNC(=O)c2ccncc2)ccc1C(C)C,-13,i,x,x,-13,4,1,x,
COc1cc(OC)c(C2Nc3cccc4cccc(c34)N2)c(OC)c1,-17,i,70*,10,0,-10,-11,57*,
Cc1cc(C)c(C(=O)Nc2ccc(C)c(C)c2)c(CC(C)(C)C(=O)O)c1,x,i,1,6,0,2,2,-3,
Cc1ccc(C2C(C#N)=C(N)N(c3ncn[nH]3)C3=C2C(=O)CC(C)(C)C3)cc1 (stereo not given),-9,i,-5,x,2,-2,-2,3,
C=C1CCN([C@@H](CC(C)C)C(=O)N2CCCC2)S(=O)(=O)c2ccccc21,-13,i,x,24,-5,-3,-2,x,
Cc1ccc2[nH]c(O)c(N=NC(=O)C3CC3c3ccccc3)c2c1Br (stereo not given),x,i,0,17,-3,2,4,84,eIF4H inh retest=-4;PABP FP inh retest=5
COc1ccc(NC(=O)CN(C)C(=O)CCNC(=O)c2ccccc2OC)cc1,-9,i,x,-8,-3,2,-1,x,
COc1ccc(C(=O)Nc2ccnn2C2CCN(C(=O)c3cnsn3)CC2)cc1,-21,i,-1,-12,3,1,2,2,
CCOC(=O)c1sc(NC(=O)c2cccc(S(=O)(=O)N(CC)CC)c2)cc1C,-20,i,-14,-49,4,5,-2,3,
Cc1ccccc1N(C(=O)c1snc(C(N)=O)c1N)C(C)C(=O)NC1CCCCC1 (stereo not given),-9,i,-2,6,-8,4,3,11,
COc1ccccc1C(=O)NCCC(=O)N(C)CC(=O)Nc1ccc(N2CCOCC2)cc1,7,i,x,-7,-4,-6,4,x,

# (further entries)
SMILES,Yeast UUG start,Rce1 inhib,eIF4H inh,HIV Env fusion,CSC inhib,MT1-MMP act inh,MT1-MMP act inh RFP,PABP FP inh,others
CCC(C)Sc1nc2c(c(=O)[nH]c(=O)n2C)n1CC(O)COc1cccc2ccccc12 (stereo not given),2,i,-10,x,-1,-2,-1,-3,
Cc1csc(N2CCc3ccccc32)n1,-11,i,-14,-192,-7,-7,-3,-5,
CCC1SC(=NC(=O)c2ccc(Cl)c(Cl)c2)NC1=O (stereo not given),1,i,-6,-75,4,-1,4,13,
O=C(Nc1nccs1)c1ccc(-c2ccc(Cl)cc2Cl)o1,-16,i,-13,-2,23,6,8,-3,
CCCCCCCSc1nnc(N)s1,x,i,-5,16,21,-1,-2,-2,
O=[N+]([O-])c1ccc(C2CCCC/C2=N/O)c([N+](=O)[O-])c1 (stereo not given),-7,i,0,9,50,0,-4,10,
C[C@@H]1CN([C@@H](C)CO)C(=O)CCCn2nncc2CO[C@H]1CN(C)C(=O)c1ccncc1,7&-11&-10,x,x,18,x,3,6,x,
COc1cc(OCC(N)=O)cc(OC)c1OC,-13,i,-10,4,-25,-1,2,2,
Cc1ccc2c(c1)N(CCC(=O)NCC1COc3ccccc3O1)C(=O)CO2 (stereo not given),-24,i,-3,2,-14,5,1,5,
COC(=O)c1ccc2c(=O)n(CCN3CCOCC3)c(SCC(=O)Nc3ccccc3OC)nc2c1,-11,x,x,7,x,-3,-2,x,
CCCCNC(=O)C1(C)CCCCN1C(=O)c1c(C)noc1C (stereo not given),-14,x,x,9,x,3,0,x,
CCN(CC(=O)Nc1c(F)cccc1F)C(=O)c1cccc(S(=O)(=O)NCc2ccccc2)c1,22,i,x,-4,-13,14,-2,x,
CCN(CC)C(=O)COc1cccc2ccccc12,1,i,-5,4,-11,-3,2,4,
CN(C)CC1(C)Cc2ccsc2C1O (stereo not given),-15,x,x,-3,x,2,0,x,
COc1ccc(C(=O)NCc2nnc(SCC(=O)Nc3nnc(C)s3)o2)cc1,-10,i,-4,-17,4,-2,4,-3,
CC1OC(=O)c2cc3ccccc3nc21 (stereo not given),-13,x,x,-2,x,0,5,x,
COc1ccc(-n2c(SCC(=O)Nc3cc(C)on3)nc3ccc(O)cc3c2=O)cc1OC,1,i,-6,-5,-5,4,5,1,
O=c1ccc(/C=C/c2ccccc2)nn1Cc1ccccc1Cl,-3,i,-1,x,7,2,-3,-12,
CCCNC(=O)C1CCN(c2ccc(S(=O)(=O)N3CCOCC3)cc2Cl)CC1,x,i,1,x,-8,6,-2,22,
CN(CC(=O)NC(=O)NCc1ccccc1)CC(=O)Nc1ccc(Cl)c(C(F)(F)F)c1,-5,i,x,10,18,-3,-3,x,
Cc1sc2ncn(CC(=O)NCCCC(=O)N3CCN(c4ncccn4)CC3)c(=O)c2c1C,-21,i,-5,x,-16,4,1,14,
C=CCn1c(SCc2c(C)noc2C)nc2sc3c(c2c1=O)CCCC3,10,i,4,u,48,-14,-20,-4,
CSc1ccccc1NC(=S)N/N=C/c1cccn1Cc1cccc(C)c1,x,i,13,9,3,1,0,6,
CCOC(=O)c1sc2nc(C)[nH]c(=S)c2c1C,x,i,7,-47,x,-1,-2,-7,
CC(=O)Nc1ccc(C2=CC(=O)CC(C)(C)C2)cc1,-4,x,x,-15,-8,0,1,x,
CCOc1ccc(NC(=O)CN2CCN(c3ccc(F)cc3)CC2)cc1,-13,i,-9,-9,1,x,x,-3,
CCOC(=O)c1sc(NC(=O)C2CC(=O)N(c3ccc(C)cc3)C2)nc1C (stereo not given),-16,x,-8,20,-10,-2,-1,17,
Cc1c(C)n(Cc2ccccc2)c2ncnc(Cl)c12,-8,i,-7,49,6,-8,-29,-3,
Nc1cc(=O)[nH]c(SCc2cccc(Cl)c2)n1,-1,x,-7,x,-6,4,-5,-1,
